NOMO-1 viab = STK33 inhibitor candidate reducing NOMO-1 cell viability. 37,000 compounds, 7.5% hits. AID 2330. inhibition, % (test concentration not listed). NOMO-1 AML viability, CellTiter-Glo luminescence, 72 h;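 active = most replicates above 80%; inconclusive = exactly half above 80%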;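 note: wells of about 30 µL received 25 nL stock; 0% = median of vehicle wells and 100% = reference inhibitor level; the first replicate is given; inactives centre near 10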
* marks the source's active call; other numbers are inactive results; u = inconclusive. Some of the compounds tested; count on the stated rates, not on these rows.

entry | molecule | NOMO-1 viab
1 | Cc1noc(C)c1NC(=O)Nc1ccc2c(c1)CC(=O)N([C@H](C)CO)C[C@H](C)[C@H](CN(C)Cc1ccc(C(=O)Nc3ccccc3N)cc1)O2 | 136.7*
2 | COc1ccc(S(=O)(=O)Nc2cccc3c2O[C@@H](CN(C)Cc2ccc(C(F)(F)F)cc2)[C@@H](C)CN([C@H](C)CO)C3=O)cc1 | 96.1*
3 | Cc1ccc(-c2noc(CSc3nnc(-c4cccs4)n3C)n2)cc1 | 33.2
4 | O=C(Cn1c(=O)oc2ccccc21)Nc1cccc([N+](=O)[O-])c1 | 28.5
5 | Cc1ccc(-c2nc3ccccc3o2)cc1NC(=O)CN1C(=O)c2ccccc2C1=O | -12.6
6 | C=C1C(=O)O[C@@H]2C[C@@]3(C)[C@@H](O)C[C@@H](O)C(=C)[C@@H]3C[C@H]12 | 82.8*
7 | Cc1ccc(S(=O)(=O)Nc2cccc3c2O[C@@H](CN(C)Cc2ccc4c(c2)OCO4)[C@@H](C)CN([C@H](C)CO)C3=O)cc1 | 26.5
8 | O=c1c2ccccc2nc(CSc2nnnn2-c2ccccc2)n1-c1ccccc1Cl | 28.1
9 | Cc1ccc(NC(=O)CSc2nc3cc(Cl)ccc3s2)c(C)c1 | 24.8
10 | C[C@@H]1CCCCO[C@H](CN(C)C(=O)Nc2ccc3c(c2)OCO3)[C@@H](C)CN([C@H](C)CO)C(=O)c2cc(NC(=O)Nc3ccc(C(F)(F)F)cc3)ccc2O1 | 38.6
11 | C[C@H]1CN([C@@H](C)CO)C(=O)c2cc(NC(=O)CCC(F)(F)F)ccc2O[C@H]1CN(C)Cc1ccc(-c2ccccc2)cc1 | 16.3
12 | C[C@@H]1CN([C@H](C)CO)C(=O)Cc2cc(NC(=O)Cc3cn(C)c4ccccc34)ccc2O[C@H]1CN(C)S(=O)(=O)c1cn(C)cn1 | 5.5
13 | C[C@@H]1CN([C@H](C)CO)C(=O)c2cccc(NC(=O)CCCCCC(=O)Nc3ccccc3N)c2O[C@@H]1CN(C)CC1CCCCC1 | 118.6*
14 | C[C@@H]1CN([C@@H](C)CO)C(=O)c2cc(NS(=O)(=O)c3ccccc3)ccc2O[C@H]1CN(C)Cc1ccc(Oc2ccccc2)cc1 | u
15 | COc1cc(OC)c(NC(=O)CCCN2C(=O)c3ccccc3C2=O)cc1Cl | 7.5
16 | C[C@@H]1CN([C@@H](C)CO)C(=O)c2cc(N(C)C)ccc2O[C@@H]1CN(C)S(=O)(=O)c1ccc(F)cc1 | 11.1
17 | COC(=O)c1ccccc1NC(=O)c1cc(-c2ccccn2)nc2c(C)c(Cl)ccc12 | 22.3
18 | C[C@H]1CN([C@@H](C)CO)C(=O)c2cc(NC(=O)C3CCCCC3)ccc2O[C@H]1CN(C)C | 2.6
19 | COc1ccc(N2C(=O)CC(SCC(=O)Nc3ccccc3F)C2=O)cc1 (stereo unspecified) | -11.2
20 | C[C@H]1CN([C@@H](C)CO)C(=O)c2cccc(NC(=O)c3ccncc3)c2O[C@H]1CN(C)S(=O)(=O)c1cn(C)cn1 | -10.8
21 | C[C@@H]1CN([C@H](C)CO)C(=O)c2cccc(NS(=O)(=O)c3cn(C)cn3)c2O[C@@H]1CN(C)Cc1ccc(C(=O)O)cc1 | 23.5
22 | C[C@H]1CN([C@@H](C)CO)C(=O)c2cccc(NS(=O)(=O)c3ccccc3)c2O[C@@H]1CN(C)Cc1ccc(Cl)c(Cl)c1 | 7.2
23 | C=CCNC(=O)CC1CCCCC1 | -8.6
24 | COc1ccc(OC)c(NC(=O)CN(c2cc(C(F)(F)F)ccc2Cl)S(C)(=O)=O)c1 | 6.4
25 | CCn1c(SCC(=O)Nc2cccc(C)c2C)nnc1-c1cccs1 | 27.2
26 | C[C@@H]1CCCCO[C@@H](CN(C)C(=O)Nc2cccc3ccccc23)[C@@H](C)CN([C@H](C)CO)C(=O)c2cc(NS(=O)(=O)c3ccc(Cl)cc3)ccc2O1 | 101.5*
27 | COc1cc(NC(=O)CN2c3cccc4cccc(c34)S2(=O)=O)cc(OC)c1OC | 28.2
28 | COc1ccc(CN(C)C[C@H]2Oc3ccc(NC(=O)Cc4ccccc4)cc3C(=O)N([C@H](C)CO)C[C@H]2C)cc1 | -2.9
29 | COc1ccc(S(=O)(=O)N(CC(N)=O)C2CCCCC2)cc1OC | -18.7
30 | O=C(COc1ccc2ccccc2c1)Nc1ccccc1-c1nc2ccccc2s1 | 21.9
31 | C[C@H]1CN([C@@H](C)CO)C(=O)c2cc(NC(=O)CCC(F)(F)F)ccc2O[C@H]1CN(C)Cc1ccc(C(=O)O)cc1 | 5.9
32 | O=C(O)[C@H]1O[C@@H](Oc2cc(O)c3c(=O)c(-c4ccc(O)cc4)coc3c2)[C@H](O)[C@@H](O)[C@@H]1O | 107.6*
33 | C[C@@H]1CN([C@H](C)CO)C(=O)Cc2cc(NC(=O)CCN3CCOCC3)ccc2O[C@@H]1CN(C)S(=O)(=O)c1ccc(F)cc1 | -13.0
34 | C[C@H]1CN([C@@H](C)CO)C(=O)c2cccc(NC(=O)C3CCOCC3)c2O[C@H]1CN(C)Cc1ccc(Cl)c(Cl)c1 | 0.6
35 | CCNC(=O)c1ccc(Cl)s1 | -11.4
36 | Cc1ccc(N(CC(=O)Nc2ccc(F)cc2)S(C)(=O)=O)cc1 | -3.0
37 | C[C@@H]1CN([C@@H](C)CO)C(=O)c2cc(NC(=O)Nc3ccccc3)ccc2O[C@H]1CN(C)CC1CCCCC1 | -1.1
38 | COc1ccc2[nH]c(=O)c(CN(C)C(=O)c3cccc(Cl)c3)cc2c1 | 17.4
39 | C[C@H](CO)N1C[C@H](C)[C@@H](CN(C)C)Oc2ccc(NC(=O)Cc3cn(C)c4ccccc34)cc2C1=O | -7.6
40 | CC1(C)CC(=O)C2=C(C1)N(CCc1ccccc1)C(=O)C2(NC(=O)c1cccnc1)C(F)(F)F (stereo unspecified) | -1.5
41 | C[C@@H]1CN([C@H](C)CO)C(=O)Cc2cc(NC(=O)CCN3CCOCC3)ccc2O[C@@H]1CN(C)Cc1ccc(-c2ccccc2)cc1 | 31.1
42 | CC(C)NC(=O)Nc1cccc2c1O[C@@H](CN(C)Cc1ccc(C(F)(F)F)cc1)[C@@H](C)CN([C@H](C)CO)C2=O | 9.4
43 | C[C@H](CO)N1C[C@H](C)[C@H](CN(C)Cc2ccc(-c3ccccc3)cc2)Oc2c(NC(=O)Nc3ccc(C(F)(F)F)cc3)cccc2C1=O | 82.1*
44 | CNC[C@H]1OCCCC[C@@H](C)Oc2ccc(NC(=O)Nc3ccc(C(F)(F)F)cc3)cc2C(=O)N([C@H](C)CO)C[C@@H]1C | 5.7
45 | COc1ccc(S(=O)(=O)N(C)CC(=O)Nc2cccc(SC)c2)cc1Cl | -4.5
46 | COC(=O)c1ccccc1NC(=O)COc1ccc(C(C)(C)C)cc1Br | 31.6
47 | CC(C)NC(=O)N(C)C[C@H]1Oc2c(NC(=O)c3nc4ccccc4s3)cccc2C(=O)N([C@@H](C)CO)C[C@H]1C | 43.0
48 | COc1ccc(S(=O)(=O)Nc2ccc3c(c2)C(=O)N([C@H](C)CO)C[C@H](C)[C@H](CN(C)C(=O)Nc2ccccc2)OCCCC[C@@H](C)O3)cc1 | 8.4
49 | C[C@@H]1CN([C@H](C)CO)C(=O)c2cccc(NS(=O)(=O)c3ccc(F)cc3)c2O[C@H]1CN(C)C(=O)Nc1cccc2ccccc12 | -16.9
50 | COc1ccc(S(=O)(=O)Nc2cccc3c2O[C@@H](CN(C)C(=O)NC2CCCCC2)[C@@H](C)CN([C@H](C)CO)C3=O)cc1 | 114.0*
51 | C[C@@H]1CN([C@H](C)CO)C(=O)c2cc(NC(=O)Nc3ccc(C(F)(F)F)cc3)ccc2O[C@@H]1CN(C)C(=O)Nc1ccc(F)cc1 | 83.7*
52 | C[C@H]1CN([C@@H](C)CO)C(=O)c2cccc(NC(=O)c3cnccn3)c2O[C@H]1CN(C)CC1CC1 | -3.7
53 | CC(Sc1nc2ccccc2[nH]1)C(=O)Nc1ccc(S(N)(=O)=O)cc1 (stereo unspecified) | 5.4
54 | C[C@@H]1CN([C@H](C)CO)C(=O)c2cc(NC(=O)CCC(F)(F)F)ccc2O[C@H]1CN(C)S(=O)(=O)c1ccccc1 | -3.3
55 | CCCCCCC[C@@H](O)CC(=O)CCc1ccc(O)c(OC)c1 | 41.4
56 | C[C@@H]1CN([C@@H](C)CO)C(=O)c2cccc(NC(=O)Nc3ccc(F)cc3)c2O[C@@H]1CN(C)C(=O)Nc1cccc2ccccc12 | 96.0*
57 | C[C@@H]1CN([C@H](C)CO)C(=O)Cc2cc(NC(=O)CCN3CCOCC3)ccc2O[C@@H]1CN(C)CC1CC1 | 16.3
58 | C[C@@H]1CN([C@@H](C)CO)C(=O)c2cc(NC(=O)Cc3ccccc3)ccc2O[C@H]1CN(C)Cc1ccc(-c2ccccc2)cc1 | 48.3
59 | COc1ccc(NC(=O)N(C)C[C@@H]2Oc3c(NS(=O)(=O)c4ccc(Cl)cc4)cccc3C(=O)N([C@@H](C)CO)C[C@@H]2C)cc1 | 12.2
60 | Cc1noc(C)c1NC(=O)Nc1ccc2c(c1)C(=O)N([C@H](C)CO)C[C@H](C)[C@H](CN(C)S(=O)(=O)c1ccccc1)OCCCC[C@@H](C)O2 | 4.6

Next results.
entry | molecule | NOMO-1 viab
61 | Cc1noc(C)c1S(=O)(=O)Nc1ccc2c(c1)C(=O)N([C@H](C)CO)C[C@H](C)[C@H](CN(C)Cc1ccncc1)O2 | -18.5
62 | CN(C)CCNc1cnn(-c2ccccc2)c(=O)c1Cl | -5.2
63 | O=C(COc1ccccc1Cl)Nc1cccc(-c2nc3ncccc3o2)c1 | 19.1
64 | C[C@@H]1CN([C@H](C)CO)C(=O)c2cc(NC(=O)CCCN(C)C)ccc2O[C@H]1CN(C)C(=O)NC1CCCCC1 | 10.9
65 | COc1cc(NC(=O)C(C)Oc2ccc(Cl)cc2Cl)ccc1NC(=O)c1ccco1 (stereo unspecified) | 24.2
66 | OC(COc1ccc(Nc2ccccc2)cc1)COc1ccc(Nc2ccccc2)cc1 | 102.7*
67 | Cc1noc(C)c1NC(=O)Nc1cccc2c1O[C@@H](CN(C)S(=O)(=O)c1cn(C)cn1)[C@H](C)CN([C@@H](C)CO)C2=O | 4.2
68 | NS(=O)(=O)c1ccc(CCNC(=O)c2cc(-c3cccnc3)nc3ccc(Cl)cc23)cc1 | 18.0
69 | Cc1noc(C)c1S(=O)(=O)Nc1cccc2c1O[C@@H](CN(C)Cc1ccccc1)[C@@H](C)CN([C@H](C)CO)C2=O | 14.4
70 | C[C@@H]1CN([C@@H](C)CO)C(=O)c2cc(NC(=O)C3CC3)ccc2O[C@@H]1CN(C)Cc1ccc(C(=O)Nc2ccccc2N)cc1 | 105.5*
71 | C[C@@H]1CN([C@@H](C)CO)C(=O)c2cccc(NC(=O)C3CCCCC3)c2O[C@@H]1CN(C)S(=O)(=O)c1cn(C)cn1 | -4.2
72 | Cc1cc(C(=O)Nc2cccc3c2O[C@H](CN(C)Cc2ccncc2)[C@H](C)CN([C@H](C)CO)C3=O)n(C)n1 | 3.2
73 | CC(=O)Oc1ccccc1C(=O)Oc1ccccc1C(=O)O | 25.0
74 | C=C1CCC[C@]2(C)CC[C@@](O)(C(=C)C(=O)O)C[C@@H]12 | -6.5
75 | C[C@@H]1CN([C@H](C)CO)C(=O)c2cc(NS(=O)(=O)c3ccc(F)cc3)ccc2O[C@H]1CN(C)Cc1ccc(-c2ccccc2)cc1 | 96.7*
76 | CCOC(=O)c1cc(-c2ccccc2)sc1NC(=S)Nc1cnccn1 | 8.9
77 | CC(C)NC(=O)N(C)C[C@H]1Oc2ccc(NC(=O)C3CC3)cc2CC(=O)N([C@H](C)CO)C[C@H]1C | -25.4
78 | C[C@@H]1CN([C@@H](C)CO)C(=O)c2cc(NC(=O)CCCCCC(=O)Nc3ccccc3N)ccc2O[C@@H]1CN(C)S(=O)(=O)c1cn(C)cn1 | -7.3
79 | COC(=O)c1ccc(Cl)c(NC(=O)C(C)N(c2ccc(C)cc2)S(C)(=O)=O)c1 (stereo unspecified) | 20.9
80 | C[C@H](CO)N1C[C@H](C)[C@H](CN(C)C(=O)Nc2ccc(C(F)(F)F)cc2)Oc2ccc(NS(=O)(=O)c3cccs3)cc2C1=O | 20.9
81 | C[C@@H]1CN([C@H](C)CO)C(=O)c2cccc(NC(=O)CCCCCC(=O)Nc3ccccc3N)c2O[C@@H]1CN(C)S(=O)(=O)c1ccc(Cl)cc1 | 94.6*
82 | Nc1nc(SCC(=O)c2ccc(Oc3ccccc3)cc2)n[nH]1 | 19.8
83 | C[C@H](CO)N1C[C@H](C)[C@@H](CN(C)Cc2ccc(C(F)(F)F)cc2)Oc2c(NC(=O)C3CC3)cccc2C1=O | 9.3
84 | C[C@H]1CN([C@@H](C)CO)C(=O)Cc2cc(NS(=O)(=O)c3ccccc3)ccc2O[C@@H]1CN(C)S(=O)(=O)c1ccccc1 | 2.2
85 | C[C@H]1CN([C@@H](C)CO)C(=O)c2cc(NC(=O)Cn3cnnn3)ccc2O[C@@H]1CN(C)Cc1ccc2c(c1)OCO2 | -0.7
86 | COC(=O)c1ccc(CSc2nnc(-c3ccccc3)o2)o1 | 72.7
87 | C[C@@H]1CN([C@@H](C)CO)C(=O)Cc2cc(NC(=O)C3CCCCC3)ccc2O[C@@H]1CN(C)Cc1ccc(Cl)c(Cl)c1 | 123.3*

Screening data: PubChem, Broad Institute
